# From PubChem
# Marburg entry inh: blocks Marburg virus binding to or entry into cells. Marburg virus pseudotyped entry inhibition, cell reporter; control for the full effect not named in the record; about a third of the inactives were read at about 46 µM. Potency, µM (doses to about 37.8 µM), without a hit: at the highest dose activity change, negative = inhibition, usual class: inhibitors. 300,000 tested, 1.8% active. AID 540276; active = well fitted inhibition curve with a large enough effect; inconclusive = small, poorly fitted or top-dose-only effect, or effect the other way; inactive = flat fitted curve, though single readings scatter; tested in HEK293 cells; about a fifth of its hits are not listed in these tables; further: on the % scale 0 is the no-effect control and ±100 the full control effect; luciferase read-out
# Lassa entry inh: inhibitors of Lassa virus binding or cell entry | 300,000 tested, 1.2% active | Potency, µM (top dose mostly 37.9 µM), inactives show at the top dose activity change, negative = inhibition, most hits filed as inhibitors | AID 540256 | Lassa virus pseudotype entry inhibition, cell reporter; control for the full effect not named in the record; active means well fitted inhibition curve with a large enough effect; inconclusive means small, poorly fitted or top-dose-only effect, or effect the other way; inactive means flat fitted curve, though single readings scatter; tested in HEK293 cells; further: on the % scale 0 is the no-effect control and ±100 the full control effect; nearly all actives have a fitted effect of over 50% in size; luciferase read-out
# SARS PLpro yeast: blocks SARS-CoV papain-like protease in a yeast assay | S. cerevisiae expressing SARS-CoV PLpro, growth rescue; control for the full effect not named in the record | Potency, µM (doses to about 32.9 µM), inactives show at the top dose activity, positive = growth rescue | 330,000 tested, 0.19% active; further: 0% is about no effect; nearly all actives have a fitted effect of over 55% in size; growth read by luminescence after 48 h
# RE007 growth inh: less growth of the S. pombe RE007 Vpr strain. S. pombe RE007 Vpr strain, BacTiter-Glo ATP luminescence, 24 h; control for the full effect not named in the record. Potency, µM (series often up to 92.2 µM), for the others: top-dose activity change, negative = less growth. 360,000 tested, 0.21% active. AID 651644; active = well fitted falling curve with a large enough effect; inconclusive = small, poorly fitted or top-dose-only effect; inactive = no such curve, though single readings can be large or run the other way;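 further: on the % scale 0 is the no-effect control and ±100 the full control effect; nearly all actives have a fitted effect of over 50% in size; the assay follows cell death caused by Vpr and the record does not say whether a fall means rescue or toxicity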
#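 Fission yeast strain RE007, carrying one chromosomally integrated HIV-1 vpr copy, was seeded at OD 0.01 in PMG+AL medium with 23 nL pinned compound. After 24 h at 30 °C and 99% humidity, viability was read by BacTiter-Glo luminescence.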
# Cruzain Triton: cruzain (T. cruzi) inhibition with detergent. P25779. purified cruzain, Z-FR-AMC fluorescence, 0.01% Triton. Potency, µM, for the others: max response, negative = inhibition, hits mostly inhibitors. 200,000 tested, 0.43% active. AID 1478; active means well fitted curve in the direction sought with a large enough effect; inconclusive means small, poorly fitted or top-dose-only effect, or another doubt; inactive means no such curve, though single readings can be large; an effect the other way counts as inactive or inconclusive;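 further: plate controls were neutral wells for no effect and buffer without enzyme for full effect; nearly all actives have a fitted effect of over 40% in size; top concentration of the series not given in the record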
# Target sequence (P25779 123-467 limits assumed): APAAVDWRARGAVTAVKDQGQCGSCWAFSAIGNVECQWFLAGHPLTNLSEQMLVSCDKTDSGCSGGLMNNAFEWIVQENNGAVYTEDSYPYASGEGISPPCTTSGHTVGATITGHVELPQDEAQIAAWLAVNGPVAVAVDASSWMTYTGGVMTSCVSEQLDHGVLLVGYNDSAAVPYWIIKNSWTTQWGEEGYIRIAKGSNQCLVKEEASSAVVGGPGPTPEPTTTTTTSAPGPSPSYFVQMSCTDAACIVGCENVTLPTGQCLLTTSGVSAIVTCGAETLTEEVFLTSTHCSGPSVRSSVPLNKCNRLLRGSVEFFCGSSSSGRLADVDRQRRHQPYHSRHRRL
#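 Detergent-containing run (0.01% Triton X-100) in acetate buffer pH 5.5 with 5 mM DTT: enzyme at 1.5 nM final, 15 min compound preincubation at room temperature, then 2 uM Z-FR-AMC substrate. Activity taken as 60 s fluorescence increase at 360/450 nm.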
# NS1 inh: inhibitors of influenza NS1 protein function | S. cerevisiae slowed by influenza A NS1, growth recovery by OD600 | Potency, µM (titrated, usually from 46.1 µM), for the others: top-dose activity, positive = more growth | 270,000 tested, 0.4% active | AID 2326; further: actives are rising curves; nearly all actives have a fitted effect of over 50% in size
#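 OD600 was taken as the measure of yeast growth restored by compound in an NS1-expressing S. cerevisiae strain. Cells had been washed out of glucose medium and diluted 1:100 into galactose -URA medium, pH 6.0.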
# Cruzain inh noDet: cruzain (T. cruzi) inhibition without detergent. purified cruzain, Z-FR-AMC fluorescence, no detergent. P25779. Potency, µM, for the others: max response, negative = inhibition, most hits filed as inhibitors. 200,000 tested, 2.3% active. AID 1476; active means well fitted curve in the direction sought with a large enough effect; inconclusive means small, poorly fitted or top-dose-only effect, or another doubt; inactive means no such curve, though single readings can be large; an effect the other way counts as inactive or inconclusive;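 further: plate controls were enzyme without inhibitor for no effect and buffer without enzyme for full effect; nearly all actives have a fitted effect of over 40% in size; top concentration of the series not given in the record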
#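 Detergent-free condition (0.00005% Triton X-100) in acetate buffer pH 5.5 with DTT. 1.5 nM enzyme and compound were pre-mixed 15 min, then 2 uM Z-FR-AMC substrate added; reaction progress from fluorescence change between first and third reads (60 s).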
# StopGo reporter: lowers the luciferase signal of an FMDV 2A StopGo reporter. human cells with a luciferase reporter of 2A StopGo recoding; control for the full effect not named in the record. AID 1159524. 410,000 tested, 1.2% active. Potency, µM (titrated, usually from 57.9 µM), inactives show at the highest dose signal change, negative = less light; active = well fitted falling curve with a large enough effect; inconclusive = small, poorly fitted or top-dose-only effect; inactive = no such curve, though single readings can be large or run the other way; tested in HEK293T cells; further: on the % scale 0 is the no-effect control and ±100 the full control effect; nearly all actives have a fitted effect of over 45% in size; luciferase light after 4 h
# Numbers without * were called inactive; ? = inconclusive; / = not tested or not shown; & = joins results of further samples; [ ] = remark or other dose. Unless noted, the call rests on the fitted dose curve; in most records, active means well fitted rising curve with a large enough effect; inconclusive means small, poorly fitted or top-dose-only effect; inactive means no such curve, though single readings can be large or run the other way. Potency means the concentration at half of the fitted maximal effect.
SMILES,Marburg entry inh,Lassa entry inh,SARS PLpro yeast,RE007 growth inh,Cruzain Triton,NS1 inh,Cruzain inh noDet,StopGo reporter
c1coc(C2OCC3(CO2)COC(c2ccco2)OC3)c1 (stereo not drawn),20%,1%,2%,3%,/,6%,/,6%
Cc1c(C(C)(C)C)s/c(=N/S(=O)(=O)c2ccccc2)n1C,/,/,0%,7%,/,28%,/,14%
COCc1[nH]nc2c1C1(C(=O)N(C)c3ccccc31)C(C#N)=C(N)O2 (stereo not drawn),-17%[46.1 µM],-1%,-5%,18%,-0.4%,-2%,1%,-13%
O=C(OCC(=O)N1CCCc2ccccc21)c1ccc(S(=O)(=O)C(F)F)cc1,5%,5%,-3%,-3%,/,/,/,-18%
Nc1nc(NCCOCCO)nc(N2CCCCCC2)c1[N+](=O)[O-],-6%[46.1 µM],-5%[46.1 µM],-1%,2%,/,-2%,/,-7%
O=C(CN1C(=O)C2(OCCCO2)c2ccccc21)NCCc1ccccc1,13%,-1%,-5%,-23%,4.3%,3%,4%,-14%
COCCNC(=O)c1cc(-c2ccc(-c3ccccc3)cc2)nc2ccccc12,?,/,0%,-1%,/,-4%,/,14%
COc1cc(NC(=O)c2oc3ccccc3c2C)ccc1NC(=O)c1ccco1,-10%[46.1 µM],/,-2%,-8%,/,-4%,/,?
CCN(CC)S(=O)(=O)c1ccc(N(C)C)c(NC(=O)CC(NC(C)=O)c2ccccc2)c1 (stereo not drawn),-3%[46.1 µM],4%[46.1 µM],5%,14%,/,/,/,11%
COC(=O)c1ccc(SC)cn1,?,3%,8%,4%,-1.6%,14%,14%,5%
Cc1ccc(C)c(CSc2ccc3nnc(-c4ccccn4)n3n2)c1,?,?,-1%,-6%,/,/,/,22µM*
CC(C)(C)c1cc(C(=O)C[n+]2ccc(C(=O)NCCCO)cc2)cc(C(C)(C)C)c1O,9%[46.1 µM],15%,0%,6%,/,-6%,/,-10%
N#CC(C(N)=O)=C1CCCCC1,10%[14.2 µM],-1%,0%,-3%,/,2%,/,-13%
CC(C)(C)OC(=O)N1CCC(c2c(C(=O)N3CCN(C(=O)c4ccco4)CC3)cnn2-c2ccc(F)cc2)CC1,-14%[46.1 µM],26%[46.1 µM],7%,0%,/,-6%,/,-19%
Cc1ccc(S(=O)(=O)N2CCCc3cc(NS(=O)(=O)c4cc(C)ccc4C)ccc32)cc1,/,?,/,/,-0.8%,/,?,38%[activator]
COc1ccc(S(=O)(=O)N2Cc3ccccc3CC2C(=O)Nc2ccc(C)cc2C)cc1OC (stereo not drawn),-16%[46.1 µM],-16%[46.1 µM],/,/,-5.6%,/,?,-23%
O=C(COC(=O)C1CCCC1)NCc1ccc(Cl)cc1,?,13%[46.1 µM],-2%,9%,/,/,/,14%
CN(C)c1cc(-c2ccc([N+](=O)[O-])cc2)oc(=O)c1Cl,19%,-1%,-1%,-9%,/,-2%,/,3%
COc1ccc(C2C(C#N)=C(N)Oc3cc(N)ccc32)cc1OC (stereo not drawn),?,-11%,15%,-11%,-5.8%,?,7%,-3%
Cc1nc(C)n(C(C)CNS(=O)(=O)c2ccc(Cl)cc2)n1 (stereo not drawn),-1%[46.1 µM],9%[46.1 µM],-4%,6%,/,4%,/,16%
COc1cccc(C(=O)NCC(=O)OCC(=O)Nc2cc(OC)c([N+](=O)[O-])cc2C)c1,20%,6%,7%,0%,22µM*,5%,?,-15%
C=CCNC(=O)[C@@H]1CSC2c3ccc(OC)c(OC)c3C(=O)N21 (stereo partly drawn),/,/,-2%,-6%,/,0%,/,-1%
CCOC(=O)C1C(=O)CC(C)(O)C(C(=O)OCC)C1c1ccc([N+](=O)[O-])cc1 (stereo not drawn),/,/,-1%,-3%,/,-6%,/,-29%
CC1(C(=O)Nc2nnc(SCc3ccccc3)s2)Cc2ccccc2C(=O)O1 (stereo not drawn),7%,3%,-45%,1%,2.2%,-49%,-7%,-17%
CC1CCCCC1NC(=S)Nc1cccc(S(=O)(=O)N(C)C)c1 (stereo not drawn),22%[46.1 µM],-3%,-1%,6%,/,/,/,9%
Cc1ccc(NC(=O)CSc2nc3c(c(=O)[nH]2)CCC3)cc1Cl,?,-29%[46.1 µM],/,/,-6.2%,/,-7%,-14%
CCOC(=O)c1ccc2c(c1)C(=O)N(C1CCCCC1)C2=O,14%,-1%,2%,-4%,0.8%,4%,-7%,7%
O=C(Cn1c(CSc2ccccc2)nc2ccccc21)Nc1ccccc1,-2%,/,2%,/,-4.7%,-6%,5%,/
CC1CCN(CCOc2ccc(OCc3ccccc3)cc2)CC1,?,-8%,-24%,6%,-0.1%,-1%,-12%,20%
O=C1NN=COc2ccccc21,20%[46.1 µM],9%[46.1 µM],1%,5%,/,5%,/,0%
O=C(CSc1nc2scc(-c3ccccc3)c2c(=O)[nH]1)Nc1ccccc1,?,-18%,-2%,4%,/,7%,/,?
COc1ccc(C(=O)CC(=O)C(=O)Nc2ccccc2C(F)(F)F)cc1,/,/,2%,3%,/,-2%,/,-5%
Cn1cc(C(=O)N/N=C/c2cccs2)c2ccccc21,?,18%,-45%,5%,-5.9%,-21%,-4%,54%[activator]
O=C1CN2Cc3c(ccc(Cl)c3Cl)N=C2N1,/,/,/,6%[18.4 µM],-3.4%,/,2%,-11%
COc1ccc2c(c1)[n+](=O)c(C(C)=O)c(C)n2[O-],16%,-12%,-2%,?,-0.9%,-2%,-1%,-25%
COc1ccc(C(=O)NCCc2c[nH]c3ccccc23)cc1,?,?,-6%,-2%,/,-32%,/,15%
O=C(N/N=C/c1coc2ccccc2c1=O)c1cn(-c2ccccc2)nc1-c1ccc(F)cc1,?,9%,-5%,-15%,-3.7%,-2%,?,?
O=C(Nc1cccc2ccccc12)C1CCCC1,/,/,-1%,-9%,/,7%,/,9%
O=C1CCN(CCc2ccccc2)CCN1[C@H](COc1ccccc1)Cc1ccccc1,/,/,-5%,-8%,/,-45%,/,-19%
O=C(Nc1ccc(Cl)cc1)C1CCN(C(=O)NC2CCCCC2)CC1,9%,-2%,2%,3%,7.2%,11%,9%,-14%
Nc1c(NC2CCCCC2)c2ccccc2oc1=O,?,0%,1%,-11%,-1.9%,6%,0%,0%
Cc1cccnc1NC(=O)CCNC(=O)c1ccc(Cl)cc1,?,0%[46.1 µM],21%,0%,/,1%,/,-6%
COc1ccc(CC(NC(C)=O)C(=O)NC2CCN(C(=O)c3cc(OC)c(OC)c(OC)c3)CC2)cc1 (stereo not drawn),/,/,1%,9%,/,-4%,/,-16%
COc1cc(C(c2c(C)[nH][nH]c2=O)c2c(C)[nH][nH]c2=O)cc(OC)c1OC,-3%,-1%,-1%,2%,/,-2%,/,-14%
O=C(OCN1C(=O)c2ccccc2C1=O)c1cc(S(=O)(=O)N2CCOCC2)ccc1F,-7%,-11%,-9%,-8%,/,/,/,-15%
Cc1ccccc1C(=O)N/N=C1\SCC(=O)N1Cc1ccco1,4%[46.1 µM],5%,0%,13%,/,2%,/,4%
O=C(CCn1cccc(C(F)(F)F)c1=O)Nc1cccc(C(F)(F)F)c1,5%&5%[46.1 µM],-20%[46.1 µM],1%,0%,/,0%,/,-21%
O=C(c1ccco1)N1CCN(S(=O)(=O)c2ccc(S(=O)(=O)NC3CCCCC3)cc2)CC1,1%&-6%,-11%,-3%,-10%,7.9%,-42%,?,1%
O=C(COC(=O)c1cncc(Br)c1)NCc1ccccc1Cl,-22%[46.1 µM],?,3%,-5%,/,/,/,8%
O=C(Nc1nn[nH]n1)c1cccc([N+](=O)[O-])c1,-5%[46.1 µM],0%,-2%,5%,/,/,/,1%
# Remaining list, next part
SMILES,Marburg entry inh,Lassa entry inh,SARS PLpro yeast,RE007 growth inh,Cruzain Triton,NS1 inh,Cruzain inh noDet,StopGo reporter
CC1(C)C2CC=C(/C=N/NC(=O)c3ccccc3O)C1C2 (stereo not drawn),?,17%,12%,-7%,-2.9%,-11%,-4%,-2%
Cn1cc(CN2CCC(C(=O)N3CCCCC3)CC2)c(-c2ccccc2F)n1,6%[46.1 µM],/,0%,-7%,/,-5%,/,-12%
CCc1ccc(NC(=O)C2CCN(S(=O)(=O)c3ccc4[nH]c(=O)ccc4c3)CC2)cc1,/,/,4%,5%,/,10%,/,-21%
CCOc1cc(C=O)ccc1OCc1cc(=O)n2cc(C)ccc2n1,10%[46.1 µM],-6%,3%,-4%,/,/,/,-11%
Cc1cccc(OCC(=O)Nc2c(C)ccc3nsnc23)c1C,0%[46.1 µM],?,/,/,0.5%,/,-3%,-7%
CCc1ccc(NC(=O)COc2coc(CN3CCN(c4ccccc4)CC3)cc2=O)cc1,10%,8%,-2%,-24%,/,/,/,-24%
COc1cccc(NC(=O)N2CCC(N3CCCCC3)CC2)c1,13%,0%,19%,-3%,0.2%,7%,8%,-6%
COCCN(CC(=O)Oc1ccccc1P(=O)(OC)OC)Cc1ccccc1,7%[46.1 µM],4%,2%,2%,/,5%,/,-18%
O=C(N/N=C\c1cccs1)c1sccc1-n1cccc1,1%[46.1 µM],-2%[46.1 µM],-2%,-6%,/,/,/,-7%
Cc1cc(Br)c2c(c1)/C(=C/C(=O)c1cccs1)C(=O)N2,?,-2%,-1%,3%,/,-2%,/,?
CCOc1ccc2nc(N3CCN(C(=O)c4ccc5c(c4)CCCC5)CC3)sc2c1,/,12%[46.1 µM],/,/,-1.5%,/,-15%,-28%
COc1ccc(NC(=O)C(Cc2ccccc2)n2cccc2)c(OC)c1 (stereo not drawn),29%&29%[46.1 µM],/,1%,0%,-4.9%,-8%,-6%,?
CC(C)CNC(=O)[C@@H]1CSC2c3ccccc3C(=O)N21 (stereo partly drawn),9%,20%,-1%,9%,/,2%,/,-9%
C#CCNC(=O)C1=C[C@H](c2ccc(C(F)(F)F)cc2)C[C@H](OCCCCO)O1,/,/,-3%,6%,/,-1%,/,-13%
CC(C)(C)Cc1nnc(NC(=O)Cc2cccs2)s1,?,17%,0%,0%,/,3%,/,23%
C=CCn1cccc(C(=O)Nc2ccc(C)c(C)c2)c1=O,?,?,-4%,-5%,/,-33%,/,-12%
O=C(O)C1C2CCC(C2)C1C(=O)NCCc1cccc(Cl)c1 (stereo not drawn),1%,17%,-7%,-14%,/,5%,/,-2%

# Not a hit list; overall some 4.6% were active at least once.
